AmpC inh no det: inhibitors of E. coli AmpC beta-lactamase without detergent; P00811; AmpC nitrocefin hydrolysis, absorbance 480 nm, no detergent; potencies from a single point are estimates; Potency, µM (series often up to 28.7 µM), for inactives: at the top dose activity change, negative = inhibition; 71,000 compounds, 1.8% hits; AID 585; active = falling curve, for most hits resting on a single point; inconclusive = weak or doubtful change; inactive = flat or rising curve; further: % of control where 0% means no effect; about half of the hits show no inhibition at the top dose; a quarter of the inactives give rising signals
Target sequence (P00811 whole entry, looked up): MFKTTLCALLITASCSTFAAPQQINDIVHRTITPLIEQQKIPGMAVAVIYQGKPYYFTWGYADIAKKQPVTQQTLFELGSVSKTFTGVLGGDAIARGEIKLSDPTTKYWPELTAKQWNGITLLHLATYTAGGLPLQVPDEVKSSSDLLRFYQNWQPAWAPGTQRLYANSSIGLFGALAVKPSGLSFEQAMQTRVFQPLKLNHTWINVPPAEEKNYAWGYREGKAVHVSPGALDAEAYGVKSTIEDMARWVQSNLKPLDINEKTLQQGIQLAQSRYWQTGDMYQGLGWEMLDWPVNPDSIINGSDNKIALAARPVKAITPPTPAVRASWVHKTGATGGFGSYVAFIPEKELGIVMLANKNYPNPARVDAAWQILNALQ
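AmpC, 20 mM phosphate pH 7.0; 15 min cpd preinc, RT; start with nitrocefin (800 uM stock); A480 kinetic read, 20 s intervals, 4 min. No-enzyme wells = negative control.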
* = called active by the depositor; & = joins results of further samples; [ ] = another dose, or the depositor's remark. Potency means the concentration at half of the fitted maximal effect.

No.	Structure	AmpC inh no det
1	COc1ccc(NC(=O)CN(C)S(=O)(=O)c2ccc3c(c2)OCCO3)c2ncccc12	28.7%
2	CCOc1ccc2nc(SCC(=O)c3cccs3)sc2c1	-3.7%
3	Nc1cc(S(=O)(=O)C(F)(F)F)ccc1C(=O)O	6.4%
4	CCc1nnc2sc(-c3ccc(NC(=O)CSc4ccc(Cl)cc4)cc3)nn12	6.2%
5	O=C(c1cccc(F)c1)N1CCC2(CC1)CN(c1ccccn1)C2	48.0%
6	C=CCn1c(=O)/c(=C/c2cc(OC)c(OC)c(OC)c2)s/c1=C(/C#N)c1nc2ccccc2n1C	68.1%
7	COc1ccc(-n2c(SCC#N)nnc2-c2ccc(NS(=O)(=O)c3ccc(C)cc3)cc2)cc1	-10.3%
8	O=C(NCc1ccc2c(c1)OCO2)C1CCN(Cc2cnn(-c3ccccc3)c2-n2cccc2)CC1	77.4%
9	O=C(CSc1nnnn1C1CCCC1)N1CCN(C(=O)c2ccco2)CC1	46.3%
10	O=C(O)c1cccc(COCC(F)(F)C(F)F)c1	-4.9%
11	N#CCCn1c(SCC(=O)N2CCN(S(=O)(=O)c3ccccc3)CC2)nc2ccccc21	48.0%
12	COC(=O)c1ccsc1NC(=O)CSc1nnnn1-c1ccccc1SC	-14.9%
13	Cc1ccccc1-c1nc(NCc2cccnc2)c2ccccc2n1	17.8%
14	O=C1c2ccccc2S(=O)(=O)N1CC1CC(c2ccccc2)=NO1 (centres undefined)	-17.8%
15	COc1ccc2oc(=O)c(C(=O)N3CCN(c4ccccc4)CC3)cc2c1	50.3%
16	c1ccc(N2CC3(CCNCC3)C2)cc1	-7.5%
17	c1cc(NNc2cccc(-c3nn[nH]n3)c2)cc(-c2nn[nH]n2)c1	4.3%[5.75 µM]
18	CCOc1ccc(C2C(C(=O)OC)=C(C)N=C3SCCC(=O)N32)cc1OCC (centres undefined)	76.0%
19	COCCCn1c(N)c(C(=O)NCCC(C)C)c2nc3ccccc3nc21	148.1%
20	CCCOC(=O)Nc1ccc(S(=O)(=O)Nn2cnnc2)cc1	11.2%
21	COC(=O)Cn1c(C)nc(=O)c(-c2ccccc2)c1C	-6.1%
22	Cc1cc(C)c(C(=O)Nc2ccc(S(=O)(=O)Nc3onc(C)c3C)cc2)c(C)c1	-9.3%
23	COc1ccc2nc(C)c3c(c2c1)OC(C)C3 (centres undefined)	-5.5%
24	CNc1ccc2oc(C[C@H]3O[C@]4(CC[C@H]3C)O[C@H]([C@H](C)C(=O)c3ccc[nH]3)[C@H](C)C[C@H]4C)nc2c1C(=O)O	-7.6%
25	CCOC(=O)C1CCCN(C(=O)C2CCN(S(=O)(=O)c3cnc[nH]3)CC2)C1 (centres undefined)	-17.3%

Brought forward from above: five compounds; new compounds follow.
No.	Structure	AmpC inh no det
21	COC(=O)Cn1c(C)nc(=O)c(-c2ccccc2)c1C	-6.1%
22	Cc1cc(C)c(C(=O)Nc2ccc(S(=O)(=O)Nc3onc(C)c3C)cc2)c(C)c1	-9.3%
23	COc1ccc2nc(C)c3c(c2c1)OC(C)C3 (centres undefined)	-5.5%
24	CNc1ccc2oc(C[C@H]3O[C@]4(CC[C@H]3C)O[C@H]([C@H](C)C(=O)c3ccc[nH]3)[C@H](C)C[C@H]4C)nc2c1C(=O)O	-7.6%
25	CCOC(=O)C1CCCN(C(=O)C2CCN(S(=O)(=O)c3cnc[nH]3)CC2)C1 (centres undefined)	-17.3%
26	O=C1CC(Sc2nnc(-c3ccccc3)o2)C(=O)N1c1ccccc1 (centres undefined)	11.8%
27	CCc1nnc(NC(=O)CN2C(=O)c3ccccc3S2(=O)=O)s1	-11.5%
28	O=[N+]([O-])c1ccc(F)c([N+](=O)[O-])c1	-11.7%
29	CCOC(=O)C1CCN(Cc2cn[nH]c2-c2ccccc2)CC1	-7.8%
30	O=C(O)CSc1nnc(-c2ccncc2)n1C1CCCCC1	-3.9%
31	CCOCCCN1CC(C(=O)NCCc2ccccc2)CC1=O (centres undefined)	-1.9%
32	Cc1nn(Cc2ccccc2)c(C)c1NC(=O)CCC(=O)O	2.7%
33	CCCn1c(C)cc(C(=O)COC(=O)c2ccc(Cl)c(S(=O)(=O)N3CCCC3)c2)c1C	13.0%
34	Cc1cnc(CNc2ccnc(-c3ccc(N(C)C)cc3)n2)cn1	35.8%
35	COc1ccc2cc(CN(CCCN3CCOCC3)Cc3nnnn3C3CCCCC3)c(=O)[nH]c2c1	113.0%
36	Cc1ccccc1OCC1CN(CN2CCOCC2)C(=O)O1 (centres undefined)	24.1%
37	O=C(COC(=O)c1cc(S(=O)(=O)N2CCOCC2)cs1)c1ccccc1	25.2%
38	O=C(CSc1nnc(-c2ccc(NS(=O)(=O)c3ccccc3)cc2)o1)NCC1CCCO1 (centres undefined)	3.1%
39	COC(=O)c1cn(C)c2ccc(S(=O)(=O)N3CCCCC3)cc2c1=O	-1.3%
40	COc1ccc(CC2C(=O)NC(=O)N(c3ccccc3)C2=O)c(OC)c1 (centres undefined)	2.8%
41	CSc1nc2c(c(=O)n1-c1ccc(C)cc1)SCC2	-3.8%
42	C=CCSc1nc2c(cc1C#N)CCC2	7.6%
43	Cc1cccc2cc(CN(Cc3nnnn3Cc3ccccc3)C3CCCC3)c(=O)[nH]c12	36.6%
44	COc1ccccc1-c1cc(C(F)(F)F)nc(S(=O)(=O)CCCC(=O)NC(C)C)n1	58.0%
45	COc1ccccc1NC(=O)CNC(=O)c1ccccc1	3.5%
46	CCSc1nnc(-c2ccc(OC)cc2)o1	12.1%
47	CCn1c(COc2cccc(C)c2)nnc1SCC(=O)Nc1cccc(C(=O)OC)c1	77.3%
48	CC(=O)c1c(C)n(CCCOC(C)C)c2ccc(O)cc12	-2.9%
49	Cc1cc(OCc2nn[nH]n2)c2c3c(c(=O)oc2c1)CCC3	-6.2%
50	CC(=O)Oc1ccc(/C=c2\sc3ncnn3c2=O)cc1	-17.8%
51	Cc1ccc(C)c(O)c1	-0.1%
52	CC(=O)NCC(=O)OC(C)C(=O)Nc1ccc(C(C)=O)cc1 (centres undefined)	6.9%
53	O=C1OCc2cc(NS(=O)(=O)c3cccs3)ccc21	-6.2%
54	CCN1CCCC1CNC(=O)Cn1cnc2sc(C)c(S(=O)(=O)N3CCC(C)CC3)c2c1=O (centres undefined)	10.6%
55	Cn1c(=O)cc(SCC(=O)NCC2COc3ccccc3O2)c2ccccc21 (centres undefined)	64.9%
56	CC(O)c1cccc(NC(=O)CCC(=O)O)c1 (centres undefined)	-16.0%
57	N#Cc1ccc(CN2CCC3(CC2)CCN(C(=O)c2csnn2)CC3)cc1	1.6%
58	COc1ccc(CN(CC(=O)NCc2ccco2)C(=O)CCC(=O)Nc2nccs2)cc1	23.2%
59	Cc1noc(C)c1CSc1nc2ccccc2c(=O)n1-c1ccc(F)cc1F	19.0%
60	CCOc1ccc(OCC)c2sc(C)nc12	21.1%
61	CN(C)c1ncc2nc(CCc3ccccc3)c(=O)n(Cc3ccc(F)cc3)c2n1	2.1%
62	O=C(Cn1cnc2c(oc3ccccc32)c1=O)c1ccccc1	-11.2%
63	Cc1ccc(NS(=O)(=O)c2ccc(OCC(=O)NCc3ccco3)cc2)cc1	-18.6%
64	Cc1cc(=O)oc2c1c(C)nn2-c1nn[nH]n1	-2.5%
65	CCCCNC(=O)C1CCCN(S(=O)(=O)c2ccc(-n3cnnn3)cc2)C1 (centres undefined)	1.5%
66	CN(c1ccc(C(=O)O)cc1)S(=O)(=O)c1ccc(Cl)cc1	-0.5%
67	COc1ccc(OC)c(NC(=O)C2CCCCC2C(=O)O)c1 (centres undefined)	-9.2%
68	CC(C)C[C@H]1C(=O)N2CCC[C@@H]2[C@]2(O)O[C@](NC(=O)[C@H]3C=C4c5cccc6[nH]c(Br)c(c56)C[C@H]4N(C)C3)(C(C)C)C(=O)N12	61.9%[12.8 µM]
69	CC(=O)N(C[C@@H](C)C(=O)O)c1c(I)cc(I)c(N)c1I	-10.3%[12.8 µM]
70	C=CCNc1nc2c(c(=O)[nH]c(=O)n2C)n1Cc1cccc(C)c1	-4.3%
71	Cc1ccc(S(=O)(=O)CCC(=O)OCC(=O)N2CC(=O)Nc3ccccc32)cc1	16.6%
72	CCOc1cccc(NC(=O)C2CC(=O)N(C)C2)c1 (centres undefined)	-5.5%
73	CCOc1ccc(OCC)c(NC(=O)C2CCCN(c3nc(C)cc(C)n3)C2)c1 (centres undefined)	33.6%
74	O=C(NCc1ccc2c(c1)OCO2)c1ccccn1	-2.7%
75	c1ccc2c(c1)oc1c(N3CCOCC3)ncnc12	15.6%

Seven compounds picked at random from the list so far:
No.	Structure	AmpC inh no det
58	COc1ccc(CN(CC(=O)NCc2ccco2)C(=O)CCC(=O)Nc2nccs2)cc1	23.2%
68	CC(C)C[C@H]1C(=O)N2CCC[C@@H]2[C@]2(O)O[C@](NC(=O)[C@H]3C=C4c5cccc6[nH]c(Br)c(c56)C[C@H]4N(C)C3)(C(C)C)C(=O)N12	61.9%[12.8 µM]
61	CN(C)c1ncc2nc(CCc3ccccc3)c(=O)n(Cc3ccc(F)cc3)c2n1	2.1%
70	C=CCNc1nc2c(c(=O)[nH]c(=O)n2C)n1Cc1cccc(C)c1	-4.3%
72	CCOc1cccc(NC(=O)C2CC(=O)N(C)C2)c1 (centres undefined)	-5.5%
57	N#Cc1ccc(CN2CCC3(CC2)CCN(C(=O)c2csnn2)CC3)cc1	1.6%
65	CCCCNC(=O)C1CCCN(S(=O)(=O)c2ccc(-n3cnnn3)cc2)C1 (centres undefined)	1.5%

Next section:
No.	Structure	AmpC inh no det
76	COc1ccc(N2CCN(C(=O)C(OC(C)=O)c3ccccc3)CC2)cc1 (centres undefined)	54.2%
77	CC(C)[C@H](NC(=O)NCCc1ccc(Cl)cc1)C(=O)O	-1.8%
78	COc1nc(NC23CC4CC(CC(C4)C2)C3)nc(OC)n1	39.2%
79	CC(C)(c1ccc(O)cc1)c1ccc(O)cc1	-11.1%&-23.8%
80	O=C1c2ccccc2C(=O)c2c(NC3CCCCC3)ccc(Nc3ccc(S(=O)(=O)O)cc3)c21	-5.1%[5.75 µM]
81	Oc1ccc(Cn2c(-c3ccc(O)cc3)nc3ccccc32)cc1	-1.0%[5.75 µM]
82	COC(=O)c1sc(=S)sc1C(=O)OC	3.0%
83	O=C1Nc2ccccc2C12OCCS2 (centres undefined)	-2.0%
84	CCOc1ccc2nc(N3CCCC(C(=O)NCCCN4CCOCC4)C3)sc2c1 (centres undefined)	150.6%
85	CC(SCC(=O)Nc1ccc(S(=O)(=O)N2CCCCC2)cc1)C(=O)O (centres undefined)	3.5%
86	N#CCCn1cc(C(CC(=O)c2ccc(Br)cc2)C(=O)O)c2ccccc21 (centres undefined)	-5.1%
87	CCOCC(=O)NC1CCSC1=O (centres undefined)	0.0%
88	NCCCCCCNS(=O)(=O)c1ccc2c(Cl)cccc2c1	65.9%
89	CCOC(=O)COc1cccc2c(=O)n(CC(=O)NCc3ccc4c(c3)OCO4)ccc12	3.1%
90	CC1(C)CC(=O)c2cc(OCC(=O)O)ccc2O1	-12.2%
91	Cc1cc(C(=O)Nc2c(C)nn(Cc3c(Cl)cccc3Cl)c2C)no1	8.4%
92	O=C(C1CCN(S(=O)(=O)c2cccc3cccnc23)CC1)N1CCN(c2ccccn2)CC1	76.6%
93	COc1cc(C(=O)Nc2ccc3c(c2)OCCO3)ccc1-n1cnnn1	-10.9%
94	CCN1CCN(c2ncnc3c2oc2nc(C(C)C)c4c(c23)CCC4)CC1	111.2%
95	CCOC(=O)c1c(C)[nH]c(C(=O)Nc2ccc3c(c2)OCO3)c1C	-14.6%
96	COCC(=O)Nc1nc2n(n1)C(c1ccccc1Cl)CC(c1ccc(OC)cc1)N2 (centres undefined)	115.2%
97	Cc1ccc2c(CC(=O)NCC3COc4ccccc4O3)coc2c1 (centres undefined)	43.3%
98	N#Cc1cn(Cc2ccccc2)c2ccccc12	-7.7%
99	COc1ccc(NC(=O)C(C)Oc2ccc(/C(C)=N\O)cc2)cc1 (centres undefined)	-14.1%
100	O=C(CSc1nc2ccccc2o1)Nc1ccccc1N1CCCCCC1	-13.3%
101	S=c1[nH]nc(COc2ccc3c(c2)OCO3)n1-c1ccccc1	-9.1%
102	O=C(CSc1nc2c(cnn2-c2ccc(F)cc2)c(=O)[nH]1)N1CCCCC1	7.8%
103	CCCNc1nc(N2CCOCC2)nc(N2CCOCC2)n1	10.9%

By substructure, the entries above containing a Cl atom.
No.	Structure	AmpC inh no det
4	CCc1nnc2sc(-c3ccc(NC(=O)CSc4ccc(Cl)cc4)cc3)nn12	6.2%
33	CCCn1c(C)cc(C(=O)COC(=O)c2ccc(Cl)c(S(=O)(=O)N3CCCC3)c2)c1C	13.0%
66	CN(c1ccc(C(=O)O)cc1)S(=O)(=O)c1ccc(Cl)cc1	-0.5%
77	CC(C)[C@H](NC(=O)NCCc1ccc(Cl)cc1)C(=O)O	-1.8%
88	NCCCCCCNS(=O)(=O)c1ccc2c(Cl)cccc2c1	65.9%
91	Cc1cc(C(=O)Nc2c(C)nn(Cc3c(Cl)cccc3Cl)c2C)no1	8.4%
96	COCC(=O)Nc1nc2n(n1)C(c1ccccc1Cl)CC(c1ccc(OC)cc1)N2 (centres undefined)	115.2%

Screening data (PubChem BioAssay)

The list is partial (hit frequency here may not be typical).
